Bioassay records as filed in PubChem.
Vif A3G: inhibitors of Vif binding to APOBEC3G peptide, primary screen, biochemical, TR-FRET, GST-Vif 1-94, biotin-A3G peptide, dose response retest (AID 1117319) | Virion infectivity factor (Human immunodeficiency virus type 1 group M subtype B (isolate … | TR-FRET GST-Vif / biotin-A3G peptide binding; higher % means a stronger effect; test concentration not given here; strong numbers were not always called active | inhibition, %, or IC50 in µM where a hit was titrated | 260,000 compounds, 0.57% hits;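 active means above the screen mean plus three standard deviations and confirmed in dose response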;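 further: Vif residues 1-94 fused to GST binding biotinylated APOBEC3G peptide 110-148; 0% = full assay without inhibitor and 100% = GST in place of GST-Vif; retest series ran down from 100 µM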
Ecoli rRNA inh: reduced GFP signal of wild-type E. coli, primary screen, bacterial rRNA inhibitor project, GFP/RFP fluorescence, OD600, single point. AID 720706, 2013. GFP signal change (wild-type ribosome), % (test concentration not listed). 350,000 compounds, 1.6% hits. E. coli WT GFP vs humanized-ribosome RFP mutants, 24 h; active compounds read low; DMSO median 0, no signal -100;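 active means significant combined selectivity score with lowered wild-type GFP, culture density cut under 30%, mutant RFP and density less affected; inactive means any of these conditions unmet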; further: one replicate is shown; some compounds called inactive have numbers as strong as hits
MLL AF4-AF9 inh: inhibitors of AF4 peptide binding to AF9, primary screen, biochemical, AlphaScreen, biotin-AF4 peptide, FLAG-AF9, single point; Protein AF-9 (Homo sapiens), P42568; inhibition, % at 10 µM; 350,000 compounds, 0.47% hits;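 active means every replicate reaching a set inhibition limit, whatever the replicate mean, cut at about 25% in these data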;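 further: 0% = plate neutral control median and 100% = total signal loss; the record names both 10 and 1 µM as test concentration; the first replicate is given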
Target sequence (P42568 whole entry, looked up): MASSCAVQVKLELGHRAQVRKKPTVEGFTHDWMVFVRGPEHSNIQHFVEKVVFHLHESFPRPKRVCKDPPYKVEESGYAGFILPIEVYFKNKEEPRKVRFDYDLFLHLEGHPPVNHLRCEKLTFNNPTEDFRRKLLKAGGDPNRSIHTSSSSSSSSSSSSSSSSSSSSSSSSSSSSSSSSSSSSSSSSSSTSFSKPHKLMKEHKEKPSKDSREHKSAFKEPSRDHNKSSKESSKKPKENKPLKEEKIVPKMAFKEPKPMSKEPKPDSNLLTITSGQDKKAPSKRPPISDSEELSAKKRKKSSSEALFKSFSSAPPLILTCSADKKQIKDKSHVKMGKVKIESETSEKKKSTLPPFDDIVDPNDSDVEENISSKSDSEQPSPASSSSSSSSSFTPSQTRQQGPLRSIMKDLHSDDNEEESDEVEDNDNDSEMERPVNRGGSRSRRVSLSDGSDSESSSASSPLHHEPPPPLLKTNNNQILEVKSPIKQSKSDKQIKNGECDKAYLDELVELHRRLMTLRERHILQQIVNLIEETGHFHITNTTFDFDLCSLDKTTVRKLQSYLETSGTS
Ecoli rRNA inh OD600: also measured in Ecoli rRNA inh; calls as there; OD600 change, %; measured here: OD600 growth;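 optical density of the mix in the first replicate; 0 = DMSO median and -100 = no signal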
Ecoli rRNA inh RFP: recorded beside Ecoli rRNA inh, whose call it bears; RFP signal change, %; measured here: RFP humanized mutant strains;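 first replicate; 0 = DMSO median and -100 = no signal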
Numbers without * were called inactive; & = joins results of further samples.

1	c1cc2c(c(NC3=NCCCS3)c1)CCCC2
2	CCC(C)C1NC(=O)C(NC(=O)C(CC(C)C)N(C)C(=O)C2CCCN2C(=O)C(C)O)C(C)OC(=O)C(Cc2ccc(OC)cc2)N(C)C(=O)C2CCCN2C(=O)C(CC(C)C)NC(=O)[C@H](C)C(=O)[C@H](C(C)C)OC(=O)CC1O (stereo partly specified)
3	CCN(C(=O)COC(=O)C(O)(c1ccccc1)c1ccccc1)c1c(N)n(Cc2ccccc2)c(=O)[nH]c1=O
4	Cc1ccc(OC(=O)N(C)C[C@@H]2OCc3cnnn3CCCC(=O)N([C@@H](C)CO)C[C@@H]2C)cc1
5	O=C1NC(=S)NC(=O)C1Cc1ccccc1O
6	COc1ccc(C(=O)CC(c2ccc(OC)c(OC)c2)c2c(O)c3ccccc3oc2=O)cc1OC (stereo unspecified)
7	CCCCC1(CCC)C(=O)NC(=S)NC1=O
8	CCOC(=O)c1cccc(C2=C(CNC(=O)c3ccc([N+](=O)[O-])cc3)[C@H]3CC[C@@H](C2)N3Cc2ccccc2)c1
Screen / compound no. | 1 | 2 | 3 | 4 | 5 | 6 | 7 | 8
Vif A3G | 4% | 3% | -9% | -2% | -3% | 6% | 5% | 3%
Ecoli rRNA inh | -1 | 4 | -1 | 8&0 | 16 | -4 | 6 | -9
Ecoli rRNA inh OD600 | -2 | 16 | 2 | 20&1 | 29 | -7 | 1 | -11
Ecoli rRNA inh RFP | 2.1 | -1.4 | 1.7 | 0.0&-3.3 | 0.2 | 4.1 | 4.7 | -1.8
MLL AF4-AF9 inh | -2.2 | 0.4 | 2.1 | -0.5&0.6&0.2 | 0.9 | -1.4 | -0.3 | 24

9	CS(=O)(=O)CCN1CC2CCCC(C2)C1
10	O=C(NCC1=C(c2ccc3ccccc3c2)C[C@@H]2CC[C@H]1N2Cc1ccco1)c1cccnc1
11	CCCC1(CC(C)C)C(=O)NC(=S)NC1=O
12	CC(=O)C1CCC2C3C(N4CC4)CC4=CC(=O)CCC4(C)C3CCC12C (stereo unspecified)
13	Cc1ccc(CN2CCC3CCC(C3)C2)c(O)c1 (stereo unspecified)
14	COC1C(O)C(C)OC(OC2C(Oc3cccc4c(O)c5c(=O)oc6ccc(C)c7c(=O)oc(c34)c5c67)OC(C)C(O)C2O)C1O (stereo unspecified)
15	CS(=O)(=O)c1ccc(C2=C(CNC(=O)c3cccnc3)[C@H]3CC[C@@H](C2)N3Cc2ccccc2)cc1
16	CC(NC(=O)N1CC1(C)C)c1ccccc1 (stereo unspecified)
Screen / compound no. | 9 | 10 | 11 | 12 | 13 | 14 | 15 | 16
Vif A3G | -14% | 9% | 4% | -7% | 1% | 3% | -5% | -10%
Ecoli rRNA inh | 14 | 0 | -21 | -46 | 0 | -2 | -1 | 14
Ecoli rRNA inh OD600 | 14 | 2 | -36 | -73 | -6 | -1 | 12 | 12
Ecoli rRNA inh RFP | -1.0 | -2.2 | -2.7 | -11 | -1.4 | 4.6 | 0.6 | -0.2
MLL AF4-AF9 inh | 9.5 | 7.6 | 0.9 | -51 | 3.9 | -2.2 | -4.0 | 4.5

17	CC(Cc1ccccc1)N(C)CC1C(=O)C2CCC1C2 (stereo unspecified)
18	CC(=O)C1CCC2C3CCC4CC(O)CCC4(C)C3C(O)CC12C (stereo unspecified)
19	Cc1cc(N(CCCl)CCCl)ccc1C=NNC(=O)c1cccnc1
20	O=[N+]([O-])c1ccc2c(c1)Cc1cc(O)ccc1-2
21	CC12Cc3cnoc3C=C1CCC1C2CCC2(C)C1CCC2(C)O (stereo unspecified)
22	CC(=O)OC1CCC2(C)C(CC(=O)C3C2CCC2(C)C(OC(C)=O)CCC32)C1 (stereo unspecified)
23	O=C(c1cc(Cl)cc(Cl)c1)N1Cc2ccccc2-n2nncc2C1
24	Cc1c(NS(=O)(=O)c2ccccc2)ccc([N+](=O)[O-])c1Cl
Screen / compound no. | 17 | 18 | 19 | 20 | 21 | 22 | 23 | 24
Vif A3G | -4% | -6% | 38% | -8% | -1% | 6% | -2% | 1%
Ecoli rRNA inh | 7 | -30 | -16 | -23 | -62 | 0 | -19 | -68
Ecoli rRNA inh OD600 | 20 | -46 | -7 | -54 | -73 | 3 | -17 | -80
Ecoli rRNA inh RFP | -1.2 | -4.4 | -3.1 | -3.6 | -22 | 5.3 | 2.1 | -25
MLL AF4-AF9 inh | -4.0 | 2.3 | -0.8 | -0.1 | 1.9 | 1.4 | -2.3 | -0.8

25	CN(C)Cc1c[nH]c2cc([N+](=O)[O-])ccc12
26	C[C@@H]1CN([C@@H](C)CO)C(=O)CCCn2nncc2CO[C@@H]1CN(C)C(=O)Oc1ccc2ccccc2c1
27	CC(Cc1ccc(O)cc1)NCC(O)c1ccc(O)c(O)c1 (stereo unspecified)
28	COC(=O)C12OCC34C(CC5C(C)=C(O)C(=O)CC5(C)C3C(O)C1O)OC(=O)C(OC(=O)/C=C(\C)C(C)C)C24 (stereo unspecified)
29	COc1ccc(NC2Oc3cc4c(cc3C(c3cc(OC)c(OC)c(OC)c3)C2C)OCO4)cc1 (stereo unspecified)
30	CCCCC1(CC)COP(=O)(OCC(Cl)(Cl)Cl)OC1 (stereo unspecified)
31	O=C(NC(=S)N1CC1)c1ccccc1
32	Nc1ccc(-c2ccc(N)cc2)cc1
Screen / compound no. | 25 | 26 | 27 | 28 | 29 | 30 | 31 | 32
Vif A3G | -5% | 3% | 39% | 28% | 7% | -2% | 5% | 1%
Ecoli rRNA inh | -3 | -1&-4 | -10 | 3 | -8 | -1 | 3 | -5
Ecoli rRNA inh OD600 | -3 | -5&-6 | -1 | 7 | -10 | -7 | 12 | 12
Ecoli rRNA inh RFP | 1.8 | -0.2&3.2 | 0.4 | -1.4 | 1.6 | 4.0 | -0.6 | 2.5
MLL AF4-AF9 inh | -1.6 | -2.1&0.2 | 8.4 | -3.2 | 4.6 | 0.5 | -1.2 | -28

33	CCS(=O)(=O)CCSP(=O)(OC)OC
34	COCC(=O)N1Cc2ccccc2-n2nncc2C1
35	CN(C)C1CCc2[nH]c3c(F)cc(F)cc3c2C1 (stereo unspecified)
36	CC(=O)OC12COC1CC(O)C1(C)C(=O)C(O)C3=C(C)C(O)CC(O)(C(OC(=O)c4ccccc4)C21)C3(C)C (stereo unspecified)
37	CNC(=O)Oc1cccc2c1OC(C)(C)O2
38	CC1=C(N2CC2)C(=O)C(CO)=C(N2CC2)C1=O
39	O=C(c1cccnc1)N1Cc2ccccc2-n2nncc2C1
40	COP(=S)(OC)Oc1ccc(SC)c(C)c1
Screen / compound no. | 33 | 34 | 35 | 36 | 37 | 38 | 39 | 40
Vif A3G | 0% | -3% | -7% | 7% | -5% | 7% | -4% | 2%
Ecoli rRNA inh | 0 | 13 | 17 | 5 | 5 | 28 | 5 | 3
Ecoli rRNA inh OD600 | 6 | 8 | 15 | 7 | 7 | 21 | 9 | -8
Ecoli rRNA inh RFP | -0.7 | 0.2 | 7.1 | 4.0 | -1.6 | 4.1 | -3.5 | 0.4
MLL AF4-AF9 inh | -0.7 | -1.7 | 1.4 | -1.8 | -1.0 | 0.7 | 1.2 | 2.4

41	N#Cc1ccccc1OCC(=O)N1CCN(CC(=O)Nc2ccc(F)cc2)CC1
42	CC(=O)C1C(N2CC2)CC2C3CC=C4CC(O)CCC4(C)C3CCC21C (stereo unspecified)
43	COc1ccc(C(SCC(NC(=O)OCc2ccccc2)C(=O)O)c2ccc(OC)cc2)cc1 (stereo unspecified)
44	Cc1ccccc1C(=O)N1Cc2ccccc2-n2nncc2C1
45	c1ccc(CNC2CCCCCCC2)cc1 (tested in a mixture with another compound)
46	CCOC(=O)c1cccc(C2=C(CNC(=O)c3ccncc3)[C@H]3CC[C@@H](C2)N3Cc2ccccc2)c1
47	FC(F)(F)c1cccc(NC2=NCCS2)c1
48	CN(C)c1ccc(/C=C/c2cc[n+](C)c3ccccc23)cc1
Screen / compound no. | 41 | 42 | 43 | 44 | 45 | 46 | 47 | 48
Vif A3G | -4% | -6% | 5% | -3% | -1% | 8% | -4% | -167%&-42%
Ecoli rRNA inh | 4 | -12 | -10 | 10 | 7 | -1 | -18 | -82&-77
Ecoli rRNA inh OD600 | 10 | -14 | -15 | 12 | -4 | -9 | -36 | -19&-13
Ecoli rRNA inh RFP | -1.3 | 9.9 | 2.4 | 2.1 | -0.4 | -2.9 | -1.8 | 49&70
MLL AF4-AF9 inh | -1.2 | 1.1 | -1.3 | -0.9 | 0.9 | 5.5 | -11 | 41*

49	O=C(CCN1CC=C(c2ccccc2)CC1)NCc1ccccc1
50	O=c1c2ccccc2[nH]c(=S)n1-c1cccc(Cl)c1
51	CC1([N+](=O)[O-])COP(=O)(Nc2cccc(Br)c2)OC1 (stereo unspecified)
52	COC(COC(N)=O)C1=C(N2CC2)C(=O)C(C)=C(N2CC2)C1=O (stereo unspecified)
53	CS(=O)(=O)c1ccc(C2=C(CNC(=O)c3ccncc3)[C@H]3CC[C@@H](C2)N3CCOc2ccccc2)cc1
54	CCCC(=O)NC1=C(N2CC2)C(=O)C(NC(=O)CCC)=C(N2CC2)C1=O
55	CC1CCCCC12C(=O)NC(=O)NC2=O (stereo unspecified)
56	O=c1c2ccccc2[nH]c(=S)n1-c1cccc(C(F)(F)F)c1
Screen / compound no. | 49 | 50 | 51 | 52 | 53 | 54 | 55 | 56
Vif A3G | -4% | -6% | -3% | 14% | 1% | 1% | 29% | -8%
Ecoli rRNA inh | 21 | 8 | -3 | 25 | -2 | -5 | 8 | -5
Ecoli rRNA inh OD600 | 10 | 8 | -18 | 12 | 2 | 5 | -14 | -10
Ecoli rRNA inh RFP | 6.8 | 3.2 | 1.7 | 4.5 | -6.6 | -2.1 | 2.2 | 0.9
MLL AF4-AF9 inh | -0.7 | -3.6 | 3.0 | -3.4 | 0.9 | -0.3 | -2.8 | 0.1

57	CCOC(=O)c1cccc(C2=C(CNC(=O)c3nccs3)[C@H]3CC[C@@H](C2)N3Cc2ccccc2)c1
58	Cc1cc(N(CCCl)CCCl)ccc1C=NNC(=O)Cc1cc(=O)oc2cc(O)ccc12
59	Cc1ncoc1C(=O)NCC1=C(c2ccc3ccccc3c2)C[C@@H]2CC[C@H]1N2Cc1ccco1
60	CC1C(c2ccccc2)OCCN1C (stereo unspecified)
61	CS(=O)(=O)c1ccc(C2=C(CNC(=O)c3ccc([N+](=O)[O-])cc3)[C@H]3CC[C@@H](C2)N3CCOc2ccccc2)cc1
62	COc1ccc(OC(=O)N(C)C[C@@H]2OCc3cnnn3CCCC(=O)N([C@H](C)CO)C[C@H]2C)cc1
63	CC(C)CCC1(CCO)C(=O)NC(=S)NC1=O
64	CC(C)(C)C(=O)N1Cc2cnnn2-c2ccccc2C1C#N (stereo unspecified)
Screen / compound no. | 57 | 58 | 59 | 60 | 61 | 62 | 63 | 64
Vif A3G | 1% | 0% | 1% | 10% | 5% | 7% | 5% | -5%
Ecoli rRNA inh | 0 | -9 | -1 | 11 | -6 | 13&-6 | 4 | -2
Ecoli rRNA inh OD600 | -7 | -8 | -4 | 14 | 8 | 12&2 | 5 | 0
Ecoli rRNA inh RFP | -0.6 | 4.7 | -0.4 | 4.3 | -3.6 | -3.7&-5.0 | -1.4 | -7.2
MLL AF4-AF9 inh | 4.7 | 0.6 | 8.7 | -11 | 9.9 | -3.4&2.5&0.0 | -0.6 | 0.1

65	C=C1C(C)C2C(Cc3ccccc3)NC(=O)C23C(OC(C)=O)C=CC(C)(O)CC(C)CC=CC3C1O (stereo unspecified)
66	CC(C)CN(CC(C)C)C(=O)C1C2c3ccccc3C(c3ccccc32)C1C(=O)O (stereo unspecified)
67	CC(C)C(NC(=O)C(C(C)C)N(C)C)C(=O)N(C)C(C(=O)N1CCCC1C(=O)N1CCCC1C(=O)NCc1ccccc1)C(C)C (stereo unspecified)
68	CN(C)c1ccc(C=C2C(=O)NC(=S)NC2=O)cc1
Screen / compound no. | 65 | 66 | 67 | 68
Vif A3G | -5% | 9% | 6% | 12%
Ecoli rRNA inh | 21 | 9 | 8 | 12
Ecoli rRNA inh OD600 | 14 | 5 | 9 | 9
Ecoli rRNA inh RFP | 2.9 | 3.3 | -1.4 | 3.0
MLL AF4-AF9 inh | -2.6 | -0.4 | -3.6 | -3.7

By substructure, the entries above with fluorine.
35	CN(C)C1CCc2[nH]c3c(F)cc(F)cc3c2C1 (stereo unspecified)
41	N#Cc1ccccc1OCC(=O)N1CCN(CC(=O)Nc2ccc(F)cc2)CC1
47	FC(F)(F)c1cccc(NC2=NCCS2)c1
56	O=c1c2ccccc2[nH]c(=S)n1-c1cccc(C(F)(F)F)c1
Screen / compound no. | 35 | 41 | 47 | 56
Vif A3G | -7% | -4% | -4% | -8%
Ecoli rRNA inh | 17 | 4 | -18 | -5
Ecoli rRNA inh OD600 | 15 | 10 | -36 | -10
Ecoli rRNA inh RFP | 7.1 | -1.3 | -1.8 | 0.9
MLL AF4-AF9 inh | 1.4 | -1.2 | -11 | 0.1

Only part of the results is shown, so the mix of outcomes need not match the whole.
